# Compound activity: PubChem BioAssay, ICCB-Longwood Screening Facility, Harvard Medical School
# HCMV NEC inh – inhibitors of HCMV UL50-UL53 interaction, biochemical, HTRF; normalized percent inhibition; inhibition, % (no concentration beside the values); actives 0.15% (n = 190,000); AID 1918969, 2023;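 active means both replicates at 50% or more, plus weaker picks with an unusually low signal ratio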;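 further: stock transfer was 100 nL into about 20 µL; 0% = negative control wells and 100% = wells with untagged competitor protein; inactives centre near -12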
# GIV Gai3 FP – inhibitors of GIV peptide binding to Galpha-i3, primary screen, biochemical, fluorescence polarization, FITC-GIV GBA peptide, rat Galphai3; percent of control (FP), % (test concentration not listed); Guanine nucleotide-binding protein G(i) subunit alpha-3 (Rattus norvegicus), P08753; 90 min; active compounds read low; scaled: aluminum fluoride 0%, vehicle 100%; actives 0.42% (n = 210,000);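 active means replicate mean at 85% of control or lower, very high polarization wells dropped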;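 further: lower values mean more displacement of the GIV peptide from Galpha-i3; wells of about 15 µL received 100 nL stock; the first replicate is given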
# Target sequence (P08753 whole entry, looked up): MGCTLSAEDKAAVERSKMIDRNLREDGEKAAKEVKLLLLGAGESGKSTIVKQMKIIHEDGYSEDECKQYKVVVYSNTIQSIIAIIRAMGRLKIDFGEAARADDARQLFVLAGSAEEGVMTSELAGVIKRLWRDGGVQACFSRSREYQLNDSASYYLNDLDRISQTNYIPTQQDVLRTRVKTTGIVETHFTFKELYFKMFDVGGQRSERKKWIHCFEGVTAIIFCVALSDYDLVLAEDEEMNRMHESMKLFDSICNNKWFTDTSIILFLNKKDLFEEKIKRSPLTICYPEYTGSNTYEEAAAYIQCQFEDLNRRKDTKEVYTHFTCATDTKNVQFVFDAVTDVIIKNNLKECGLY
# Sa growth 42C – S. aureus growth inhibition at 42 and 30 °C, primary screen, LtaS inhibitor project, RN4220, two temperatures; OD600, 20 h, 42 °C; active compounds read low; relative growth, % (test concentration not listed); actives 0.53% (n = 170,000); AID 720641, 2013;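 active means growth at 42 °C up to 50% and 20 or more points under that at 30 °C, or under 10% at both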;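 further: 300 nL library stock went into each well; scaled to the means of positive and negative controls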
# Sa growth 42C second temp – further read-out of Sa growth 42C, marked with its call; relative growth, %; measured here: growth at 30 °C;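 optical density after 20 h as mean of two plates; 100% = untreated growth and lower means inhibition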
# * marks the source's active call; other numbers are inactive results; · = no result given; & = joins results of further samples.
1) O=c1ccc(N2CCCN(S(=O)(=O)c3cc(F)ccc3F)CC2)nn1-c1ccc(F)cc1
2) O=S1(=O)CC(O)C(S(=O)(=O)Cc2ccc(Cl)cc2)C1 (stereo not given)
3) Cn1cccc1C(=O)Nc1cc(S(C)(=O)=O)ccc1Cl
4) O=C(CCN1C(=O)c2ccccc2C1=O)Oc1c(-c2ccco2)oc2ccccc2c1=O
5) CCC(C)c1ccc(OCC(=O)Nc2ccc(NC(=O)c3ccco3)cc2)cc1 (stereo not given)
6) CCn1c(SC/C(O)=C(\C(=O)OC)c2nc3ccccc3[nH]2)nnc1-c1ccccc1OC
7) COc1cccc(CNC(=O)c2cc3cc(C)ccc3n2C)c1
8) CC(C)c1ccc(NC(=O)Cn2c3ncccc3c(=O)n2-c2ccccc2)cc1
entry no.	1	2	3	4	5	6	7	8
HCMV NEC inh	-50	-3	-32	-30	-6	3	-24	7
GIV Gai3 FP	105	105	·	106	108	·	99	105&106
Sa growth 42C	·	108	83	57	102	98	96	100
Sa growth 42C second temp	·	96	83	68	91	98	82	95

9) CC(=O)N1CCN(S(=O)(=O)c2cc(N3C(=O)CCS3(=O)=O)ccc2C)CC1
10) FC(F)(F)c1cc(-c2cccnc2)n[nH]1
11) Cc1cc(N2CCC(C(N)=O)CC2)nc(-c2ccccc2)n1
12) Cc1ccc2oc(=O)n(CC(=O)OC(C)C)c2c1
13) COc1cccc(OC(=O)CSc2nnc(-c3ccccc3OC)o2)c1
14) Cn1c(SCC(=O)O)nc2cc(C(F)(F)F)cnc21
15) CC(C)Nc1nc(NC(C)C)nc(N(C)C#N)n1
16) Cc1cc(C)c(C#N)c(SCC(=O)C2CC2)n1
entry no.	9	10	11	12	13	14	15	16
HCMV NEC inh	-10	-12	-4	-16	-19	1	6	-85
GIV Gai3 FP	104	101	104	98	102	98	105	·
Sa growth 42C	·	88	111	90	80	94	96	101
Sa growth 42C second temp	·	78	89	93	89	97	95	74

# One compound at a time, from the list above.
# Cc1cc(C)c(C#N)c(SCC(=O)C2CC2)n1 is entered as HCMV NEC inh: -85; GIV Gai3 FP: ·; Sa growth 42C: 101; Sa growth 42C second temp: 74
# Cc1cc(N2CCC(C(N)=O)CC2)nc(-c2ccccc2)n1 is entered as HCMV NEC inh: -4; GIV Gai3 FP: 104; Sa growth 42C: 111; Sa growth 42C second temp: 89
# COc1cccc(OC(=O)CSc2nnc(-c3ccccc3OC)o2)c1 is entered as HCMV NEC inh: -19; GIV Gai3 FP: 102; Sa growth 42C: 80; Sa growth 42C second temp: 89

# (further entries)
17) Cc1cc(-n2nnc(C(=O)O)c2C)ccc1Br
18) CCc1ccccc1Nc1nn2c(=O)c3ccc(C(=O)Nc4ccc(OC)cc4)cc3nc2s1
19) CCOC(=O)CN1CC23C=CC(O2)C(C(=O)Nc2ccc4c(c2)OCO4)C3C1=O (stereo not given)
20) CCOC(=O)Cc1ccc(NCc2ccc(Cl)cc2)cc1
21) Clc1ccccc1COc1ccccc1-c1nnco1
22) CN(C)C1CCS(=O)(=O)C1 (stereo not given)
23) COc1cccc(CNS(=O)(=O)c2ccc3c(c2)CCN3C(=O)C2CCC2)c1
24) COc1ccccc1CNC(=O)c1ccc2c(=O)n3c(nc2c1)CCCCC3
entry no.	17	18	19	20	21	22	23	24
HCMV NEC inh	-29	·	2	-23	19	-6	-13	7
GIV Gai3 FP	102	104	102	98	·	101	104	109
Sa growth 42C	·	124	104	104	95	111	108	99
Sa growth 42C second temp	·	82	91	98	99	109	86	92

25) Cc1ccc(-n2c(SC3CCOC3=O)nc3ccccc32)cc1 (stereo not given)
26) O=c1[nH]c2ccc(S(=O)(=O)N3CCN(c4ccccc4)CC3)cc2[nH]c1=O
27) Cc1ccc(N2C(=O)C3SC(N)=C(C#N)C(c4ccco4)C3C2=O)cc1 (stereo not given)
28) CN(C)CCN(Cc1ccco1)C(=O)Cn1nc(Cc2ccncc2)c2ccccc2c1=O
29) COc1ccc(/C(C)=N/O)cc1
30) C(=NN1CCN(c2ccccn2)CC1)c1cccc2ccccc12
31) O=c1[nH]c(=O)n(C2OC(CO)C(O)C2O)cc1Br (stereo not given)
32) CC(Sc1nnnn1C)C(=O)c1ccc(Cl)cc1 (stereo not given)
entry no.	25	26	27	28	29	30	31	32
HCMV NEC inh	-4	-13	·	·	-6	-12	-3	-10
GIV Gai3 FP	·	100	99	101	·	103	·	107
Sa growth 42C	94	76	73	92	75	96	78	93
Sa growth 42C second temp	111	64	73	81	53	83	91	109

33) CCOc1ccc(Oc2cc3c(cc2NS(=O)(=O)c2ccc(F)cc2)n(C)c(=O)c(=O)n3C)cc1
34) CCc1nn(CC(=O)NCc2cccc(OC)c2)c(=O)c2cc3cc(F)ccc3n12
35) COc1ccccc1C(=O)CSc1nnnn1-c1ccc(C)cc1C
36) CC(C)c1ccccc1NC(=O)COC(=O)COc1ccc(Cl)cc1
37) N#Cc1ccc(OCC(F)(F)C(F)F)cc1C#N
38) O=C(Cn1cc(C=NO)c2ccccc21)N1CCOCC1
39) c1ccc2cc(OCCN3CCOCC3)ccc2c1
40) Cc1ccccc1Nc1c(-c2ccc(N3CCOCC3)cc2)nc2ccc(Br)cn12
entry no.	33	34	35	36	37	38	39	40
HCMV NEC inh	0	-41	6	-7	-17	-8	·	-12
GIV Gai3 FP	100	98	·	·	103	104	110	99
Sa growth 42C	·	122	137	114	93	97	95	104
Sa growth 42C second temp	·	90	103	89	80	86	82	87

41) CCOC(=O)N1CCC(NC(=O)c2ccc3c(c2)N(CC)C(=O)c2ccccc2S3(=O)=O)CC1
42) O=C(Cc1ccc(NC(=O)N2CCCCc3ccccc32)cc1)NCc1ccc(Cl)cc1
43) Cc1sc(NC(=O)COc2ccc(C(C)(C)C)cc2)c(C(=O)OC(C)C)c1C
44) CCN1CCc2c(OCC(=O)NC3CCCCC3)cccc2C1=O
45) COc1cccc(/C=C/c2nc(C#N)c(NCCc3ccccc3)o2)c1
46) CCOC(=O)c1c(C)[nH]c(C)c1S(=O)(=O)NCC(=O)NCc1ccc(C)cc1
47) O=C(CSc1nnc2ccccn12)Nc1ccc(N2CCOCC2)cc1
48) COc1ccccc1N(CCCN1C(=O)c2cccc3cccc(c23)C1=O)C(=O)c1cccc([N+](=O)[O-])c1
entry no.	41	42	43	44	45	46	47	48
HCMV NEC inh	-2	2	-48	-22	-28	·	-19	-15
GIV Gai3 FP	97	107	99	100	101	106	·	99
Sa growth 42C	98	·	101	93	111	104	88	·
Sa growth 42C second temp	87	·	86	91	89	89	94	·

49) CCOC(=O)c1c(C)n(C)c2ccc(OC(=O)c3ccccc3Br)cc12
50) O=C(CSc1nnc(-c2ccccc2)o1)c1ccc2c(c1)OCCO2
51) O=C(Nc1ccc(-c2nc3ccccc3o2)cc1)c1ccc(S(=O)(=O)N2CCCC2)cc1
52) O=C(Nc1nnc(CCS(=O)(=O)c2ccc3ccccc3c2)s1)c1ccccc1Cl
53) Cc1ccc(C)c(Cn2c(=O)cc(C(F)(F)F)c3c(C)nn(C)c32)c1
54) CC1CCC2(CC1)NC(=S)N(C)N2 (stereo not given)
55) COc1cccc(-n2cc(C(=O)Nc3ccccc3C(N)=O)c3ccccc3c2=O)c1
56) COc1ccc(Cn2c(=O)c3cccnc3n(Cc3ccc(C)cc3)c2=O)cc1
entry no.	49	50	51	52	53	54	55	56
HCMV NEC inh	10	-11	-10	-12	·	-22	·	-9
GIV Gai3 FP	107	104	104	103	98	103	102	98
Sa growth 42C	·	80	·	·	76	92	106	98
Sa growth 42C second temp	·	71	·	·	97	86	94	91

57) Cc1cc(N2CCN(C)CC2)nc2ccc(NC(=O)Nc3cccc(Cl)c3)cc12
58) N#CCc1ccc(NC(=O)c2ccccc2C(=O)O)cc1
59) COc1ccc(C(=O)N(CCCN2C(=O)c3cccc4cccc(c34)C2=O)c2ccccc2OC)cc1
60) CCn1c(CNC(=O)c2ccc(OC)cc2)nnc1SCC(=O)Nc1ccccc1
61) CC(C)COC(=O)Nc1ccccc1I
62) Cc1ccc(C23CC4CC(CC(CN)(C4)C2)C3)cc1C
63) O=C(CCCN1C(=O)c2cccnc2Oc2ccc(Cl)cc21)NCc1ccccc1F
64) Cc1ccc2c(COC(=O)C3COc4ccccc4O3)cc(=O)oc2c1 (stereo not given)
entry no.	57	58	59	60	61	62	63	64
HCMV NEC inh	0	-25	-25	11	-8	·	·	-7
GIV Gai3 FP	105&105	112	105	98	96	103	106	·
Sa growth 42C	81	97	·	97	90	125	113	97
Sa growth 42C second temp	60	96	·	98	94	50	94	97

65) CC(=O)N1CCOc2cc(S(=O)(=O)NCc3ccc(C)cc3)c(Cl)cc21
66) O=C(c1cn(CC2CCCO2)cc2c(=O)n(-c3ccccc3)nc1-2)N1CCCc2ccccc21 (stereo not given)
67) C=CCc1cccc(C(=O)O)c1O
68) CN(c1ccccc1C(=O)NC(C)(C)C)S(C)(=O)=O
69) CCn1c(C)c(CCC(=O)Nc2cccc(OC)c2)c(=O)n2nc(-c3ccccc3OC)cc12
70) CC1CN(CN2C(=O)CCC2=O)CC(C)O1 (stereo not given)
71) Cc1csc(-c2coc3cc(OC(=O)C(C)NC(=O)OCc4ccccc4)cc(C)c3c2=O)n1 (stereo not given)
72) CN(C)c1ccc(C2CC(c3c(-c4ccccc4)c4cc(Cl)ccc4[nH]c3=O)=NN2C(=O)CCC(=O)O)cc1 (stereo not given)
entry no.	65	66	67	68	69	70	71	72
HCMV NEC inh	·	-82	-53	-5	-8	-58	-12	-18
GIV Gai3 FP	99	99	116	106	108	103	100	102
Sa growth 42C	100	·	119	96	100	89	·	·
Sa growth 42C second temp	109	·	87	95	87	82	·	·

73) Cn1cnc2c(=O)oc3ccc(S(=O)(=O)NCc4ccc5c(c4)OCO5)cc3c21
74) CCOc1ccc2[nH]c(=O)c(CN(CC3CCCO3)C(=O)N(CC)CC)cc2c1 (stereo not given)
75) Cc1ccnc2nc(C(=O)OCC(=O)NCc3cccc(Cl)c3)nn12
76) Cc1ccccc1S(=O)(=O)Cc1ccc(C(=O)NC2CCC(C)CC2)o1 (stereo not given)
77) C=CCNC(=O)Cn1nnc(-c2ccc(C)cc2)n1
78) CC(C)COc1ccc(C2=NC(c3ccncc3)=Nc3ccc(F)cc3N2)cc1
79) CCN(Cc1ccccc1)S(=O)(=O)c1ccc(N2CCCCS2(=O)=O)cc1
80) COc1cccc(-c2cc(C(F)(F)F)nc(NCc3ccc(F)cc3)n2)c1
entry no.	73	74	75	76	77	78	79	80
HCMV NEC inh	-4	-4	-4	-5	-4	12	·	11
GIV Gai3 FP	96	104	·	106	·	101	100	98
Sa growth 42C	·	109	95	101	103	90	103	72
Sa growth 42C second temp	·	105	93	88	95	90	79	82

81) CCN(Cc1ccccc1)C(=O)N1CCOCC1
82) O=C(NC(c1ccccc1Cl)c1ccc2cccnc2c1O)c1ccccc1 (stereo not given)
83) CCN(CC)c1ccc(C2Nc3ccccc3-c3cc(C)nn32)cc1 (stereo not given)
84) COc1ccc(Br)cc1C(=O)Nc1ccc(-c2nc3ccccc3o2)c(O)c1
85) O=C(CN1C(=O)c2ccccc2C1=O)OCC(=O)c1ccc[nH]1
86) CCCn1c2ccccc2c2cnn(CC(=O)N(CCCOC(C)C)Cc3ccco3)c(=O)c21
87) COC(=O)c1scc(-c2ccc(C)cc2)c1S(=O)(=O)Nc1ccccc1
88) O=C(C(Cc1ccccc1)n1cccc1)N1CCN(c2ccccc2)CC1 (stereo not given)
entry no.	81	82	83	84	85	86	87	88
HCMV NEC inh	-24	-15	-27	-13	-30	·	-12	-5
GIV Gai3 FP	·	101	104	100	·	104	102	100
Sa growth 42C	94	83	119	·	85	91	·	88
Sa growth 42C second temp	92	87	85	·	100	104	·	81

89) COc1cccc(CNC(=O)c2ccc(-n3c(C)cc4c3CCCC4)cc2)c1
90) COC(=O)c1ccc(COC(=O)c2ccc(OC)c(OC)c2)cc1
91) O=C(CCC(=O)N1CCCC1)Nc1nc(-c2cc3cc(Br)ccc3oc2=O)cs1
92) COCC(=O)Nc1ccccc1C(N)=O
93) COCCN1CCc2nc(SCC(=O)Nc3ccc(Br)cc3)[nH]c(=O)c2C1
94) COc1ccc(C2C=C(c3ccc(F)cc3)Nc3nc(-c4ccc(Cl)cc4)nn32)cc1 (stereo not given)
95) CC(C)CCN1C(=O)c2cc3ccccc3n2CC1(C)C(=O)NC1CCCC1 (stereo not given)
96) N#CCSc1nc2cc(C(F)(F)F)ccc2n1Cc1ccccc1
entry no.	89	90	91	92	93	94	95	96
HCMV NEC inh	·	-15	·	-8	-12	15	-2	-3
GIV Gai3 FP	100	102	108	105	101	115	100	·
Sa growth 42C	106	107	114	111	104	95	·	87
Sa growth 42C second temp	88	89	92	94	87	82	·	95
